Assay outcomes: PubChem BioAssay, National Center for Advancing Translational Sciences (NCATS)
StopGo reporter: lowers the luciferase signal of an FMDV 2A StopGo reporter | AID 1159524 | 1.2% of 410,000 active | Potency, µM (highest dose often 57.9 µM), inactives show at the top dose signal change, negative = less light | human cells with a luciferase reporter of 2A StopGo recoding; control for the full effect not named in the record; active = well fitted falling curve with a large enough effect; inconclusive = small, poorly fitted or top-dose-only effect; inactive = no such curve, though single readings can be large or run the other way; tested in HEK293T cells; also: nearly all actives have a fitted effect of over 45% in size; luciferase light after 4 h
RE007 growth inh: less growth of the S. pombe RE007 Vpr strain | S. pombe RE007 Vpr strain, BacTiter-Glo ATP luminescence, 24 h; control for the full effect not named in the record | Potency, µM (doses to about 92.2 µM), for inactives: at the top dose activity change, negative = less growth | 0.21% of 360,000 active | AID 651644; active = well fitted falling curve with a large enough effect; inconclusive = small, poorly fitted or top-dose-only effect; inactive = no such curve, though single readings can be large or run the other way;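 also: nearly all actives have a fitted effect of over 50% in size; the assay follows cell death caused by Vpr and the record does not say whether a fall means rescue or toxicity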
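Fission yeast strain RE007, carrying one chromosomally integrated HIV-1 vpr copy, was seeded at OD 0.01 in PMG+AL medium with 23 nL pinned compound. After 24 h at 30 °C and 99% humidity, viability was read by BacTiter-Glo luminescence.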
* = called active by the depositor; ? = inconclusive; [ ] = dose if it differs, or a comment. % is scaled to controls: 0 for no effect and ±100 for the full control effect; potency is read from the fitted curve at half-maximal effect.

SMILES,StopGo reporter,RE007 growth inh
O=C(NC(c1ccccc1)c1ccc2ccccc2n1)C1CCN(CCOc2ccc(Cl)cc2Cl)CC1 (stereo not drawn),?,-15.2%[18.4 µM]
CCC(C)C(CO)NCCCn1cnc2c(OC)ncnc21 (stereo not drawn),-20.0%,-23.0%
COc1cc(C=CC(=O)N2CCN(CC(=O)N3CCCC3)CC2)cc(OC)c1OC,-0.5%,4.5%
COC(=O)c1cc(=O)nc(NN=Cc2ccc(C)cc2)s1,-6.6%,0.6%[18.4 µM]
CC1CCN(C(=O)COC(=O)c2cccc(S(=O)(=O)N3CCOCC3)c2)CC1,-6.5%,-0.6%
COc1ccc(C(NC(=O)C2CCN(Cc3ccc(Oc4ccccc4)cc3)CC2)c2ccccc2C)cn1 (stereo not drawn),-21.3%,-7.1%
OCC1OC(Nc2ccccc2C=NO)C(O)C1O (stereo not drawn),-9.4%,-24.0%
CCc1nc2c(OCCOc3ccc(F)cc3)cccn2c1N(C)C(=O)CC(C)C,-10.9%,-14.1%[18.4 µM]
Cc1ccc(-c2cc(C(=O)N3CC4(C)CC3CC(C)(C)C4)no2)cc1 (stereo not drawn),14.1%,0.9%
CC(C)N(C)c1ncnc2c1ncn2[C@H]1CN(Cc2ccc(-c3ccccc3)cc2)C[C@@H](CO)O1,-28.9%,-8.7%
COc1cccc(NC(=O)CN(C)C(=O)c2ccc(NC(=O)CC3SC(N4CCCC4)=NC3=O)cc2)c1 (stereo not drawn),5.8%,3.1%
O=C1OC(CN2CCOCC2)CN1N=Cc1ccc([N+](=O)[O-])o1 (stereo not drawn),-14.0%,-25.4%[18.4 µM]
O=C(c1[nH]c(C(F)(F)F)nc1-c1ccccc1)N1CCC(Cc2ccccc2)CC1,-24.5%,14.8%
COc1ccc(C(=O)Nc2ccc3c(c2)OCO3)cc1S(=O)(=O)N1CCOCC1,-11.7%,-9.9%
COc1ccc(NC(=O)c2cccc3c(-c4cnn(C)c4)coc23)cc1,0.3%,-3.5%
COc1ccc(C2=Nc3ccccc3N(C(=O)c3ccc4c(c3)OCO4)C2C(=O)NCc2ccccc2)cc1 (stereo not drawn),20.8%,-14.2%
CCC(c1nnnn1-c1ccc2c(c1)OCCO2)N1CCN(c2ccccc2OC)CC1 (stereo not drawn),?,5.8%
Cc1ccc(-c2cnc(C(O)c3cc(C)cc(C)c3)[nH]2)cc1 (stereo not drawn),1.5%,3.2%
O=C1c2ccccc2C(c2nnnn2Cc2ccccc2)N1CCc1ccc(O)cc1 (stereo not drawn),6.7%,10.4%
CC(=O)Nc1ccc(C(=O)N2CCCCC2c2cc(C(=O)Nc3cccc4c3CCCC4)no2)cc1 (stereo not drawn),-10.7%,-8.1%
COc1cc(C(=O)N2CCCCC2c2cc(C(=O)N3CCOCC3)no2)cc(OC)c1C (stereo not drawn),8.8%,11.7%
CNc1cncc(-c2ccc(OC)cc2OC)n1,5.7%,-14.5%
COC(=O)[C@@]12C[C@@H](CC(=O)NCC34CC5CC(CC(C5)C3)C4)C(=O)N(Cc3ccccc3)C1=CCC(C)(C)C2,-26.0%,-15.9%
C[C@]12CC[C@@H](O)C[C@@H]1CC[C@@H]1[C@@H]2CC[C@]2(C)C(=O)[C@H](O)C[C@@H]12,-21.0%,5.8%

Look-ups from the results shown:
Reading for CC(=O)Nc1ccc(C(=O)N2CCCCC2c2cc(C(=O)Nc3cccc4c3CCCC4)no2)cc1 (stereo not drawn) in StopGo reporter: -10.7%
Reading for C[C@]12CC[C@@H](O)C[C@@H]1CC[C@@H]1[C@@H]2CC[C@]2(C)C(=O)[C@H](O)C[C@@H]12 in StopGo reporter: -21.0%

(further entries)
SMILES,StopGo reporter,RE007 growth inh
CN(C(=O)c1cccc(NC(=O)Cc2ccc(NC(=O)C3CCCN(C(=O)C4CCCC4)C3)cc2)c1)C1CC1 (stereo not drawn),-3.3%,-1.2%
Cc1cccc(C)c1NC(=O)C(c1cccc2ccccc12)n1c(=O)c(-c2cc3ccccc3[nH]2)nc2ccccc21 (stereo not drawn),-9.4%,10.7%
COc1ccc(NC(=O)C[C@H]2C(=O)N(C3CCCCC3)C[C@@H]2c2ccccc2)cc1,-1.7%,-0.6%
CC1(C(=O)O)CCN1C(=O)c1cccc(C(F)(F)F)c1 (stereo not drawn),-11.7%,18.3%
COP(=O)(OC)OC(C(=O)c1ccccc1)c1ccccc1 (stereo not drawn),-1.9%,-2.0%
Cc1cccc(NC(=O)c2nc[nH]c2C(=O)Nc2ccccc2F)c1,-22.8%,0.0%
CCOC(=O)C1=C[C@@H](C(C)C)N(S(=O)(=O)c2ccc(C)cc2)[C@H]1c1ccccc1F,?,5.5%
COc1cccc(Nc2nc(C(N)Cc3ccc(C(F)(F)F)cc3)cs2)n1 (stereo not drawn),0.0%,8.6%
COc1ccc(N(CC(=O)NCc2cccs2)S(=O)(=O)c2ccc(C(C)=O)cc2)cc1,-6.8%,-6.7%
COc1ccccc1NC(=O)COC(=O)c1c(NC(C)=O)sc(C)c1C,-28.7%,6.2%
CCNC(=O)C1(C)CCN(Cc2cccc(C(F)(F)F)c2)C1 (stereo not drawn),-3.4%,-7.7%
CN1CCN(C(=O)C[C@@H]2CC[C@@H]3[C@H](COC[C@@H](O)CN3Cc3cccc(Cl)c3)O2)CC1,-21.8%,-9.0%
O=C(NCc1ccc(C(F)(F)F)cc1)c1ccc2c(c1)S(=O)(=O)c1ccccc1C2=O,-13.4%,-2.2%
COc1ccc(CN2CCC(C)(Oc3ccc(C(C)=O)cc3)C2)c2ccccc12 (stereo not drawn),-13.5%,-15.3%
O=C(NC1CCCC1)C1c2ccccc2OCC(=O)N1CCc1ccccc1 (stereo not drawn),-20.4%,1.2%
CCCNC(=O)c1cc(C2CCCCN2C(=O)c2cccs2)on1 (stereo not drawn),-3.9%,15.6%
Cc1ccc2nc(SCC(=O)N3N=C(c4cccs4)CC3c3ccc(F)cc3)nc(=O)n2c1 (stereo not drawn),-20.2%,6.5%
COCCNC(=O)c1ccc(-c2ccc(OC)cc2C)c2ccoc12,-15.4%,23.3%[18.4 µM]
CCOC(=O)N1CCN(C(c2cc3ccccc3o2)c2nnnn2C(C)(C)C)CC1 (stereo not drawn),-5.6%,-20.4%
O=C1[C@H]2[C@@H](c3ccc(C(F)(F)F)cc3)N[C@]3(CCCN(Cc4ccc(C(F)(F)F)cc4)C3=O)[C@H]2C(=O)N1Cc1ccccc1,?,5.3%
O=S(=O)(c1ccc(Br)cc1F)N1CC[C@H](O)C1,-10.8%,-6.2%
Cc1cc(Cl)ccc1C(O)c1ncc(-c2ccc(Cl)cc2)[nH]1 (stereo not drawn),13.8%,-23.2%
COc1cccc(-c2cnc3c(NC(C)=O)cc(-c4cccc(C(=O)NCCO)c4)cn23)c1,-13.7%,-10.6%
CC1(C(=O)NS(=O)(=O)c2cccc(F)c2)CCN1C(=O)CC1CCCC1 (stereo not drawn),-0.5%,10.9%
C=CCOc1ccc(/C=N/n2nnnc2N)cc1OC,-16.7%,7.9%
COc1ccccc1-c1noc2c1C(=O)N(Cc1cn(-c3ccc(Cl)cc3)nn1)CC2,?,8.3%
O=C(CN1CCN(S(=O)(=O)c2ccc(F)c(Cl)c2)CC1)N1CCOCC1,-1.4%,-0.7%
COCCNC(=O)c1cc2c(c(-c3cccc(C#Cc4ccc(OC)c(OC)c4)c3)n1)[C@H](CCO)N(S(=O)C(C)(C)C)C2 (stereo partly drawn),-12.0%,0.4%
O=C(Nc1ccc2c(c1)OCCO2)C1c2ccccc2OCC(=O)N1CCc1c[nH]c2ccccc12 (stereo not drawn),2.6%,1.7%
CC(=O)N1CC2(CC(c3ccccc3C(F)(F)F)=NO2)CN1c1ccc(Cl)cc1 (stereo not drawn),?,4.7%
CCN1C(C)=CC(=O)[C@@H](O)[C@H]1c1ccccc1Br,-14.5%,7.5%
CC(=O)c1ccc2c(c1)N(Cc1ccccc1)C(=O)C(C)S2 (stereo not drawn),-16.5%,1.1%
CCCCN1C(=O)C(CC(=O)NCCCN(C)C)CC(C(=O)N(C(C)C)C(C)C)=C1C (stereo not drawn),?,0.0%
COc1ccc(-c2coc3c(C(=O)Nc4cccc(NS(C)(=O)=O)c4)cccc23)c(C)c1,?,-0.2%[18.4 µM]
O=C(Nc1ccc(F)c(Cl)c1)[C@@H]1O[C@H](CO)[C@H](O)[C@H](O)[C@H]1O,-10.0%,5.9%[18.4 µM]
OCC[C@H]1C[C@H](O)[C@@H](O)[C@@]2(CCCO2)O1,-16.5%,-16.5%
CC(=O)c1ccc(-c2cnc3c(NC=O)cc(-c4cnn(C)c4)cn23)cc1,0.8%,8.3%[18.4 µM]
Cc1cn([C@H]2C[C@H](O)[C@@H](CNC(=O)c3ccccn3)O2)c(=O)[nH]c1=O,-27.2%,-24.0%
CSCCC(C(=O)NC(C)(C)C)n1c(-c2ccccc2)nc2ccccc21 (stereo not drawn),-14.8%,4.1%
COc1ccc(C(=O)Nc2nc(C)cs2)cc1S(=O)(=O)N1CCOCC1,8.2%,1.8%
CCOC(=O)CN1C(=O)N[C@@H](c2ccccc2)[C@@H](C(=O)OC)[C@H]1C,-6.9%,11.2%
COc1ccc(NC(=O)c2ccc(-c3ccc(F)cc3)o2)cc1OC,?,-22.6%
O=C(CNc1ccc(C(F)(F)F)cc1)Nc1cccc(S(=O)(=O)N2CCCCC2)c1,-19.4%,-19.0%
Cc1cccc(C(=O)C(O)(c2ccccc2)C2CCCCC2=O)c1 (stereo not drawn),0.0%,2.3%
COC(=O)C[C@@H]1CC[C@@H](NC(=O)c2ccccc2F)[C@@H](CO)O1,-9.6%,-2.4%
O=C(CC[C@H]1O[C@@H](n2ccc(=O)[nH]c2=O)[C@H](O)[C@@H]1O)N1CCN(c2ccccn2)CC1,-6.2%,3.1%
CC(C)(C)NC(=O)C(C1CC1)n1c(=O)c(-c2ccco2)nc2ccccc21 (stereo not drawn),-3.2%,-3.7%
O=C(Nc1ccccc1N1CCOCC1)[C@@H]1O[C@H](CO)[C@H](O)[C@H](O)[C@H]1O,-18.8%,-0.8%[18.4 µM]
O=C(COC(=O)c1cc(F)c(F)cc1Cl)NC1CCCCCC1,-5.6%,2.7%
COc1ccc(C(N)c2csc(Nc3ccc(C(=O)NCCCO)cn3)n2)cc1 (stereo not drawn),5.4%,-0.2%
COCCNc1ncnc2c1ncn2[C@H]1CN(Cc2ccncc2)C[C@@H](CO)O1,-7.7%,-6.5%
COC(=O)C[C@H]1CC[C@@H](NC(=O)Nc2ccc(C(F)(F)F)cc2)[C@@H](CO)O1,-7.8%,3.4%
CC(=O)Oc1ccc(Cn2c(C)c(C(=O)NCc3ccc4c(c3)OCCO4)sc2=O)cc1,?,4.2%[18.4 µM]
C[C@H](O)[C@@H]1C(=O)N2CCc3c([nH]c4ccccc34)[C@@H]2C[C@@H]1N(C)C(=O)Nc1cccc2ccccc12,-21.0%,-15.0%
COC(=O)C1N2C(=O)[C@@H](NC(=O)COc3ccccc3)[C@H]2SC1(C)C (stereo partly drawn),0.0%,-10.9%
COc1cccc(C(C)(O)c2nc(-c3cncnc3)cs2)c1 (stereo not drawn),-26.4%,-10.6%

Continued.
SMILES,StopGo reporter,RE007 growth inh
O=C(O)c1cccc(N2C(=O)C=CC2=O)c1,-14.5%,0.0%
O=C(Nc1ccc2c(c1)OCCO2)C(C1CC1)N1CCN(c2ccc(F)cc2)CC1 (stereo not drawn),0.5%,1.4%
O=C(COC(=O)c1cc([N+](=O)[O-])ccc1N1CCOCC1)NCc1ccccc1,-14.3%,-5.2%
C#CCNC(=O)C[C@@H]1C[C@@]2(C(=O)OCC)CCCC=C2N(CCCCCCCC)C1=O,-4.1%,1.7%
COCCNC(=O)C1(C)CCCN(C(=O)c2ccccc2C(F)(F)F)C1 (stereo not drawn),-19.6%,-3.8%
CC1(Cc2ccc(S(C)(=O)=O)cc2)C(=O)Nc2ccc(Cl)cc21 (stereo not drawn),-15.6%,6.5%
O=S1(=O)CCN(CCc2ccccc2)CC1,-13.6%,-8.6%
CN(C(=O)c1ccc(NC(=O)Cc2ccc(NC(=O)C3CCCN(C(=O)C4CCCCC4)C3)cc2)cc1)C1CCCC1 (stereo not drawn),-23.2%,12.6%
COc1ccc(-c2cnc3c(c2)C(=O)N([C@H](C)CO)C[C@@H](C)[C@@H](CN(C)C(=O)NC2CCCC2)O3)cc1,-20.8%,0.8%
CCc1ccc(OC2(C)CCN(Cc3ccc(SC)cc3)C2)cc1 (stereo not drawn),-20.1%,-18.0%
COc1ccc(NC(=O)CN2CCc3ccccc3C2)cc1,33.5%[activator],0.5%
COc1cccc(-c2cnc3c(NC=O)cc(-c4cccc(C(=O)N(C)C)c4)cn23)c1,-19.6%,1.4%[18.4 µM]
CCc1nnc(NC(=O)c2ccco2)s1,29.3%,-6.0%
CC(C)(C)OC(=O)N(CCc1ccccc1)Cc1ccccc1OCc1cccc(NC(=O)C2CC2)c1,-9.7%,-5.1%

The list is partial; the hit share may differ from the screen's.
